RE007 growth inh: less growth of the S. pombe RE007 Vpr strain | S. pombe RE007 Vpr strain, BacTiter-Glo ATP luminescence, 24 h; control for the full effect not named in the record | Potency, µM (highest dose often 92.2 µM), for the others: at the highest dose activity change, negative = less growth | hit rate 0.21% among 360,000; active = well fitted falling curve with a large enough effect; inconclusive = small, poorly fitted or top-dose-only effect; inactive = no such curve, though single readings can be large or run the other way;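 also: % is scaled to controls: 0 for no effect and ±100 for the full control effect; nearly all actives have a fitted effect of over 50% in size; the assay follows cell death caused by Vpr and the record does not say whether a fall means rescue or toxicity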
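Fission yeast strain RE007, carrying one chromosomally integrated HIV-1 vpr copy, was seeded at OD 0.01 in PMG+AL medium with 23 nL pinned compound. After 24 h at 30 °C and 99% humidity, viability was read by BacTiter-Glo luminescence.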
NS1 inh: inhibitors of influenza NS1 protein function; hit rate 0.4% among 270,000; Potency, µM (series often up to 46.1 µM), for inactives: at the highest dose activity, positive = more growth; S. cerevisiae slowed by influenza A NS1, growth recovery by OD600; also: actives are rising curves; nearly all actives have a fitted effect of over 50% in size
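A cell-based growth assay was used: compounds that relieve NS1-induced slow growth of budding yeast raise OD600. Assay medium was yeast nitrogen base with ammonium sulphate and -URA supplement, pH 6.0, with 2% galactose.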
2A StopGo: FMDV 2A StopGo reporter, luciferase signal | human cells with a luciferase reporter of 2A StopGo recoding; control for the full effect not named in the record | Potency, µM (highest dose often 57.9 µM), inactives show top-dose signal change, negative = less light | hit rate 1.2% among 410,000; active = well fitted falling curve with a large enough effect; inconclusive = small, poorly fitted or top-dose-only effect; inactive = no such curve, though single readings can be large or run the other way; tested in HEK293T cells; also: % is scaled to controls: 0 for no effect and ±100 for the full control effect; nearly all actives have a fitted effect of over 45% in size; luciferase light after 4 h
Cruzain Triton: blocks cruzain activity in presence of Triton detergent; purified cruzain, Z-FR-AMC fluorescence, 0.01% Triton; hit rate 0.43% among 200,000; Potency, µM, for the others: max response, negative = inhibition, actives largely listed as inhibitors; P25779; active = well fitted curve in the direction sought with a large enough effect; inconclusive = small, poorly fitted or top-dose-only effect, or another doubt; inactive = no such curve, though single readings can be large; an effect the other way counts as inactive or inconclusive;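 also: plate controls were neutral wells for no effect and buffer without enzyme for full effect; nearly all actives have a fitted effect of over 40% in size; top concentration of the series not given in the record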
Target sequence (P25779 123-467 limits assumed): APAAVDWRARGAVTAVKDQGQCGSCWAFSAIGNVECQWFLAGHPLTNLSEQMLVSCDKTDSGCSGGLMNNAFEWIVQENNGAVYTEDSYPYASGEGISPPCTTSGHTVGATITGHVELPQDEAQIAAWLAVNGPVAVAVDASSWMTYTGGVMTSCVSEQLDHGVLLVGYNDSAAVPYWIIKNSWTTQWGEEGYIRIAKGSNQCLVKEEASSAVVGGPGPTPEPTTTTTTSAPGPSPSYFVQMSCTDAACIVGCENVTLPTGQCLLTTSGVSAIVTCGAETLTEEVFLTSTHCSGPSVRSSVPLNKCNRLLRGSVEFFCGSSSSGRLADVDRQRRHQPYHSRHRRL
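In this qHTS format, compounds are incubated with 1.5 nM cruzain for 15 min at room temperature before 2 uM Z-FR-AMC is added. Release of AMC is followed at 360/450 nm, and progress is taken as the 60 s fluorescence difference.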
Marburg entry inh: blocks Marburg virus binding to or entry into cells; Potency, µM (series often up to 37.8 µM), for the others: top-dose activity change, negative = inhibition, hits mostly inhibitors; Marburg virus pseudotyped entry inhibition, cell reporter; control for the full effect not named in the record; about a third of the inactives were read at about 46 µM; hit rate 1.8% among 300,000; active = well fitted inhibition curve with a large enough effect; inconclusive = small, poorly fitted or top-dose-only effect, or effect the other way; inactive = flat fitted curve, though single readings scatter; tested in HEK293 cells; about a fifth of its hits are not listed in these tables; also: % is scaled to controls: 0 for no effect and ±100 for the full control effect; luciferase read-out
SARS PLpro yeast: inhibitors of SARS-CoV papain-like protease in yeast; S. cerevisiae expressing SARS-CoV PLpro, growth rescue; control for the full effect not named in the record; Potency, µM (doses to about 32.9 µM), inactives show at the top dose activity, positive = growth rescue; hit rate 0.19% among 330,000; AID 485353; also: 0% is about no effect; nearly all actives have a fitted effect of over 55% in size; growth read by luminescence after 48 h
Cruzain noTriton: cruzain (T. cruzi) inhibition without detergent | AID 1476 | Potency, µM, without a hit: max response, negative = inhibition, usual class: inhibitors | P25779 | purified cruzain, Z-FR-AMC fluorescence, no detergent | hit rate 2.3% among 200,000; active = well fitted curve in the direction sought with a large enough effect; inconclusive = small, poorly fitted or top-dose-only effect, or another doubt; inactive = no such curve, though single readings can be large; an effect the other way counts as inactive or inconclusive;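 also: plate controls were enzyme without inhibitor for no effect and buffer without enzyme for full effect; nearly all actives have a fitted effect of over 40% in size; top concentration of the series not given in the record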
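Detergent-free condition (0.00005% Triton X-100) in acetate buffer pH 5.5 with DTT. 1.5 nM enzyme and compound were pre-mixed 15 min, then 2 uM Z-FR-AMC substrate added; reaction progress from fluorescence change between first and third reads (60 s).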
LASV entry inh: blocks Lassa virus binding to or entry into cells | Lassa virus pseudotype entry inhibition, cell reporter; control for the full effect not named in the record | Potency, µM (series often up to 37.9 µM), inactives show at the top dose activity change, negative = inhibition, hits mostly inhibitors | hit rate 1.2% among 300,000 | AID 540256; active means well fitted inhibition curve with a large enough effect; inconclusive means small, poorly fitted or top-dose-only effect, or effect the other way; inactive means flat fitted curve, though single readings scatter; tested in HEK293 cells; also: % is scaled to controls: 0 for no effect and ±100 for the full control effect; nearly all actives have a fitted effect of over 50% in size; luciferase read-out
* marks the source's active call; other numbers are inactive results; ? = inconclusive; . = not tested or not shown; & = joins results of further samples; [ ] = dose if it differs, or a comment. Unless noted, calls follow the shape of the dose curve; as a rule, active means well fitted rising curve with a large enough effect; inconclusive means small, poorly fitted or top-dose-only effect; inactive means no such curve, though single readings can be large or run the other way. Potency is read from the fitted curve at half-maximal effect.

SMILES	RE007 growth inh	NS1 inh	2A StopGo	Cruzain Triton	Marburg entry inh	SARS PLpro yeast	Cruzain noTriton	LASV entry inh
COCCCN(C(=O)C1CCCCC1)c1c(N)n(Cc2ccccc2)c(=O)[nH]c1=O	6.0%	.	-3.5%	.	9.8%	6.2%	.	0.1%
CCSc1nc(C)c(C)c(=O)[nH]1	-4.8%	3.7%	43.4%[activator]	.	-8.5%[46.1 µM]	0.8%	.	21.1%[46.1 µM]
COCc1cc(=O)[nH]c(SCCS(=O)(=O)c2ccc(C)cc2)n1	5.2%	3.5%	-1.3%	.	?	0.5%	.	10.4%
Cn1c(=O)[nH]c2c(c(C(=O)O)nn2C)c1=O	1.5%	.	-1.4%	.	0.0%[46.1 µM]	.	.	20.9%[46.1 µM]
O=C(CCC1CCCC1)NCCS(=O)(=O)N1CCN(c2ccccc2F)CC1	6.4%	.	27.4%	.	0.1%[46.1 µM]	0.8%	.	-0.2%
CCOC(=O)c1cnc2c(C#N)cnn2c1N	0.5%	.	3.0%	.	20.6%[46.1 µM]	-0.1%	.	.
CCC(C)N(C(=O)COC(=O)CCc1c[nH]c2ccccc12)C1CCS(=O)(=O)C1 (configuration not stated)	-14.3%	-2.9%	-10.3%	0.8%	15.2%	6.9%	13.8%	23.8%
CCc1nnc(NC(=O)CSc2ccc(-c3cccs3)nn2)s1	1.0%	.	3.6%	.	-7.1%[46.1 µM]	-0.3%	.	0.4%
Cc1cccc(N(C)S(=O)(=O)c2ccc(-c3cc(C)no3)s2)c1	11.1%	-17.1%	0.0%&0.0%	-7.2%	.	-12.6%	-2.7%	?
COc1ccc(S(=O)(=O)NCC2CCC(C(=O)NCCC(C)C)CC2)cc1 (configuration not stated)	1.9%	11.6%	12.4%	-2.2%	-6.1%	-16.5%	7.4%	?
N#Cc1cc2c(nc1SC1CC(=O)N(c3ccccc3)C1=O)CCC2 (configuration not stated)	-1.1%	6.9%	-7.4%	-2.8%	?	2.9%	-9.7%	3.1%
CCOc1ccc(/C=N/NC(=O)c2cc(-c3cccn3C)n[nH]2)cc1	-10.6%	.	-12.0%	.	-27.1%[46.1 µM]	0.6%	.	?
COCCNC(=S)NNC(=O)CSCc1ccc(Cl)cc1Cl	31.3%	-1.4%	0.0%	.	?	-0.9%	.	?
CCOC(=O)CSc1nc(C2CC2)cc(-c2ccc(F)cc2)c1C#N	0.3%	2.8%	-26.6%	-2.9%	9.6%	0.4%	1.0%	12.8%
CCOc1cc(C2Nc3ccccc3C(=O)N2c2ccccc2)ccc1O (configuration not stated)	-5.0%	-6.6%	45.7%	0.6%	?	-2.8%	-7.0%	4.0%
COc1ccccc1Oc1ccc(S(=O)(=O)NCc2ccccn2)cc1	-12.8%	-12.4%	-22.7%	4.3%	-15.7%	7.5%	5.6%	-24.1%
Cc1ccc(C)c(NC(=O)CCN2CCc3ccccc3C2)c1	-18.1%	4.4%	-9.5%	.	7.6%[46.1 µM]	0.1%	.	12.4%[46.1 µM]
Cc1cc(C)cc(NC(=O)N2CCC(c3nc4ccccc4o3)CC2)c1	4.3%	-28.4%	-22.7%	-7.9%	-18.9%	-5.1%	-1.4%	1.0%
COc1ccc(Nc2nnc(SCc3cc([N+](=O)[O-])cc4c3OCOC4)s2)cc1	10.9%	3.9%	-7.8%	0.1%	6.2%	1.9%	20µM*	4.0%
Cc1ccc(SCCC(=O)NC(C)(C)C)cc1	-9.4%	12.9%	50.3%[activator]	4.7%	4.3%	-5.4%	-2.7%	12.7%
O=C(NCC(c1cccs1)N1CCOCC1)c1cc([N+](=O)[O-])ccc1Cl (configuration not stated)	10.9%	-5.1%	-17.9%	-0.2%	1.4%	?	2.9%	5.9%
CCOc1ccc(C(=O)N(Cc2ccc(OC)cc2)Cc2cc3cc(OC)ccc3[nH]c2=O)cc1	13.8%	4.3%	11.5%	-4.6%	-18.2%	-1.4%	3.1%	-22.5%
Cc1cccc(N2C(=O)C(O)=C(C(=O)c3cccs3)C2c2ccc(C(C)C)cc2)n1 (configuration not stated)	4.6%	4.7%	-12.8%	.	21.6%	-2.7%	.	24.8%
CN1CCN(S(=O)(=O)Cc2ccc(Cl)cc2)CC1	0.3%	3.1%	0.0%	.	19.0%[46.1 µM]	0.9%	.	-15.4%[46.1 µM]
CC(=O)N(C)c1ccc(NC(=O)/C=C/c2ccccc2Cl)cc1	0.4%	-7.0%	6.0%	-4.8%	?	3.5%	12.3%	?
CSc1nc(-c2ccc(N(C)C)cc2)c(C#N)c(=O)n1C	-8.7%	4.2%	41.2%[activator]	.	.	-1.4%	.	.
COC(=O)c1ccc(CSc2nnc(CS(=O)Cc3ccc(Br)cc3)n2-c2ccccc2)cc1 (configuration not stated)	-1.6%	-6.3%	0.0%	-4.7%	?	-36.2%	?	?
COc1ccc(-c2nnc(SCC(=O)Oc3ccc(C)cc3)o2)cc1	18.7%	-32.0%	-0.2%	-2.8%	-9.0%[46.1 µM]	-92.4%	-1.8%	1.0%
Cc1ccc2oc(=O)n(CCNC(=O)Nc3ccc(C)c(F)c3)c2c1	.	.	-21.1%	-6.4%	0.2%[46.1 µM]	.	-11.3%	-2.4%[46.1 µM]
CS(=O)(=O)N1CCc2cc(C(=O)OCC(=O)c3ccccc3)ccc21	9.4%	-6.3%	24.9%	3.1%	10.1%[46.1 µM]	-3.0%	12.7%	10.4%
COc1cccc(-c2oc3ccc(C)cc3c(=O)c2O)c1	.	.	22.9%	-10.4%	?	.	20.3%	?
Cc1ccccc1CNC(=O)c1cnc2sc(N3CCC(C)CC3)nn2c1=O	.	.	0.0%	3.6%	.	.	-8.5%	?
CC1=NN(C(=O)c2ccccc2)C(O)(c2ccc(Br)cc2)C1 (configuration not stated)	3.3%	-7.4%	10.1%	.	-18.3%[46.1 µM]	-2.3%	.	0.7%
COc1ccc(CNC(=O)CS(=O)Cc2nc(-c3ccc(OC)c(OC)c3)oc2C)cc1 (configuration not stated)	0.4%	13.8%	-7.8%&-3.6%	-7.0%	-2.2%&-2.2%[46.1 µM]	5.4%	4.7%	-23.2%[46.1 µM]
COc1ccc2[nH]c(=O)c(CN(Cc3nnnn3Cc3ccccc3)CC3CCCO3)cc2c1 (configuration not stated)	14.8%	-18.6%	.	-6.6%	1.9%&-3.1%	-3.5%	13.5%	-22.5%
CC(C)[C@H](Nc1ccc(S(=O)(=O)N2CCOCC2)cc1[N+](=O)[O-])C(=O)OCC(=O)N(C(C)C)C(C)C	24.1%	-14.0%	?	-4.9%	?	5.1%	?	?
Cc1ccc(C)c(NC(=O)Cn2c(=O)n(Cc3ccc4c(c3)OCO4)c(=O)c3ccccc32)c1	.	.	-24.8%	-0.7%	0.7%[46.1 µM]	.	-5.4%	1.6%[46.1 µM]
CCC(=O)N1c2ccc(S(=O)(=O)CCC(=O)NCc3ccc(OC)cc3)cc2CC1C (configuration not stated)	.	.	-3.6%	-1.5%	5.0%[46.1 µM]	.	6.8%	-23.7%[46.1 µM]
Cc1cccc(NC(=O)C2CCN(C(=O)NC3CCCCC3)CC2)c1	8.6%	6.7%	0.5%	.	6.9%[46.1 µM]	0.6%	.	?
Cc1cccc(OCC(=O)Nc2cccc3nsnc23)c1	0.8%	-8.8%	.	-2.2%	21.7%	-3.4%	1.3%	-2.4%
COc1ccc(C(=O)CSc2nc3cc(C(=O)NC4CCCC4)ccc3c(=O)n2CC2CCCO2)cc1 (configuration not stated)	.	.	?	0.6%	.	.	3.2%	6.1%[46.1 µM]
O=S(=O)(c1cc(F)ccc1F)N1CCN(c2ncccn2)CC1	7.5%	22.5%	-19.0%	.	-4.3%[46.1 µM]	3.9%	.	-3.9%[46.1 µM]
C=CCn1c(O)c(C=NCCN2CCOCC2)c(=O)[nH]c1=S	-0.5%	-63.3%	-17.5%	.	.	1.0%	.	.
CC(C)(C)n1nc2c(c1NC(=O)c1cc3ccccc3o1)CS(=O)(=O)C2	2.5%	.	19.6%	.	?	-1.0%	.	-0.7%[46.1 µM]
CCOC(=O)N1CCN(c2c(NCCCN(CC)CC)c(=O)c2=O)CC1	5.8%	9.5%	-2.2%	-2.3%	-5.3%	7.9%	-7.9%	-11.3%
N#Cc1c(C(F)(F)F)cc(-c2ccccc2)nc1SCc1nc(N)nc(N2CCOCC2)n1	-1.8%	-10.3%	-28.2%	-7.3%	-15.3%	-0.8%	29.0%	-11.3%
CC(C)(C)c1ccc(OC(=O)c2cccnc2)cc1	-10.3%	-11.2%	15.8%	-5.2%	17.9%	-29.6%	-20.7%	-3.9%
COc1cc(C)c(NC(=O)C(=S)NCCc2ccccc2)cc1C	5.1%	-5.1%	-12.3%	.	?	0.9%	.	?
C=CCn1c(Cc2cccs2)nnc1SCC(=O)NCc1ccco1	18.7%	-4.1%	?	-2.2%	12.7%	2.5%	?	2.4%
N#CCCN1CCN(CCC#N)CC1	11.3%	-4.8%	0.3%	4.9%	-0.5%	3.3%	1.7%	-3.5%
COc1cc(C)c(C)cc1S(=O)(=O)N1CCCc2ccccc21	-22.0%	-12.8%	10.0%	.	.	-5.1%	.	.
COc1ccc(OC)c(CCNC(=O)Cn2nc(C)n3c(cc4sccc43)c2=O)c1	.	.	-7.0%	1.0%	-1.7%[46.1 µM]	.	-2.0%	.
Cc1cc(/C=N/NC(N)=O)c(C)n1-c1ccc(F)cc1	1.3%	.	-14.4%	.	11.8%	-2.4%	.	-18.6%
O=[N+]([O-])c1ccccc1Nc1nc(-c2cccnc2)cs1	-15.5%	-29.2%	0.0%	.	.	-13.2%	.	.
COc1ccc(N2CC(C(=O)NC3CCSC3=O)CC2=O)cc1 (configuration not stated)	7.2%	7.3%	12.4%	.	-9.3%[46.1 µM]	-1.6%	.	4.9%[46.1 µM]
NC(=O)CCn1nc(-c2ccccc2)c2ccccc2c1=O	4.7%	1.9%	9.9%	3.8%	29.5%	3.6%	-3.3%	-6.0%
